# Biofilm kill mix: mixtures killing C. albicans biofilm; inhibition, % at 7.6 µM; AID 1242; C. albicans biofilm persisters + clotrimazole, fluorescence viability; primary screen in compound mixtures of four per well; 120,000 compounds, 0.02% hits;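 active = inhibition above 30.3% in the primary screen of four-compound pools, then above 30% when the compound was retested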;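 also: compounds exposed to preformed 24 h biofilms for 48 h; the number belongs to the whole pool; some results filed as inactive read as strong as hits; inactives centre near 12; 0% = biofilm with clotrimazole alone and 100% = kill control; retested singly at about 60 µM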
#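 System: C. albicans CAF4-2 wild-type biofilms; Medium: RPMI/MOPS medium, pH 7.0; Reagent: Clotrimazole, 50 µg/mL; Times: biofilm formation 24 h, compound exposure 48 h, 37 °C; Detection: 2-h Alamar Blue fluorescence, 535/590 nm excitation/emission; Evaluation: percent inhibition of biofilm viability.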
# An asterisk follows results filed as active. Only part of the results is shown, so the mix of outcomes need not match the whole.
SMILES,Biofilm kill mix
CN(C)/C=C(/C(=O)c1ccccc1Cl)S(C)(=O)=O,11
COc1ccc(C2CC(C)(c3ccc(OC)cc3)Nc3ccccc3N2)cc1 (configuration not stated),24
O=C(CSc1nncs1)NC(=O)NC1CCCC1,8
O=C(CN1C(=O)CSc2ccc(S(=O)(=O)N3CCOCC3)cc21)NCCCN1CCOCC1,16
O=C(Nc1cccnc1)c1sc(Nc2ccccc2)nc1-c1ccccc1,13
Cc1ccc(C)c(N2CCN(S(=O)(=O)c3cccc4cccnc34)CC2)c1,5
O=C(Nc1ccc(C(F)(F)F)cc1)N1CCN(c2ccnc3cc(Cl)ccc23)CC1,16
COc1ccc2c(C)cc3nncn3c2c1,18
O=C(c1ccc2ccccc2c1)N1CCN(S(=O)(=O)/C=C/c2ccccc2)CC1,10
CN(C)c1cccc(C(=O)NNC(=O)NC2CCCCC2)c1,18
CCC(C)NCC(=O)Nc1cc(S(=O)(=O)N(CC)c2ccccc2)ccc1Cl (configuration not stated),10
COc1ccc(N=C2SC(C(=O)Nc3ccc(OC)cc3)CC(=O)N2CCN2CCOCC2)cc1 (configuration not stated),17
CC(C)c1nc(NCCO)c2nnn(Cc3ccccc3)c2n1,29
CC1(C)Cc2ccccc2-c2nnc(SCc3ccccc3)n21,9
Cc1ccc(S(=O)(=O)N2CCOCC2)cc1NC(=O)COC(=O)c1cc(=O)[nH]c2ccccc12,23
CC(=O)c1ccc(N2CCN(CC(=O)N(CC(C)C)c3c(N)n(CC(C)C)c(=O)[nH]c3=O)CC2)cc1,-3
Cc1[nH]c2ccccc2c1/C=N/NC(=S)NC(C)C,7
Cc1ccccc1NC(=O)NC1(C(=O)N2CCOCC2)CCCCC1,29
O=C(c1ccc2ncsc2c1)N1CCN(c2ccccc2Cl)CC1,13
CN(C)c1ccc(N=Nc2ccccc2C(=O)OCC(=O)N(C)c2ccccc2)cc1,3
C#CCCCCCCCCC(=O)NCCCC,17
CCCc1ccc(OCc2ccccc2)c2c(=O)cc(C(=O)OCC)oc12,9
CCOC(=O)c1c(NC(=O)CCCC(=O)O)sc2c1CCC2,26
Clc1ccc(OCCN2CCCCC2)cc1Cl,13
CC(=O)Nc1cccc(OCCCNC(=O)C2CCC2)c1,14
# Next section:
SMILES,Biofilm kill mix
COc1ccc(/C=C/C(=O)OCC(=O)NCc2ccco2)c(OC)c1,2
Nc1nnc(/C=C/c2ccccc2)s1,25
O=S(=O)(c1ccc(-c2csc(Nc3ccc(Br)cc3)n2)cc1)N1CCCC1,13
O=C(c1cc(COc2ccc(F)cc2Cl)on1)N1CCC(c2ccncc2)CC1,8
CCOc1ccc2ncc(S(=O)(=O)c3ccc(C)cc3)c(N3CCC4(CC3)OCCO4)c2c1,5
C(=N\N1CCOCC1)/c1cccs1,9
COc1ccc(OC)c2sc(NNC(=O)COc3ccccc3)nc12,4
Cc1cccc(C2c3[nH]c4ccccc4c3CCN2C(=O)Cc2n[nH]c(C)n2)n1 (configuration not stated),7
Cc1nn(Cc2ccc(C(=O)N3CCOCC3)o2)c(C)c1Br,14
COc1ccc(N2C(=O)CC(N(CCc3ccccc3)C(=O)c3ccccc3)C2=O)cc1 (configuration not stated),23
Cc1nc2ccccn2c1C(=O)CSc1ccccc1,14
CN(C)S(=O)(=O)c1ccc(Cl)c(-c2nnc3n2CCCCC3)c1,-12
O=[N+]([O-])c1ccc(C=Nc2cccc3ccccc23)s1,6
COc1ccc(NC(=S)N2CCCC(CO)C2)c(OC)c1 (configuration not stated),11
O=C(CSc1nc2ccc(Cl)cc2[nH]1)Nc1ccc2c(c1)CCC2,11
Cn1c(CCc2ccccc2)nnc1SCC(=O)N1CCOCC1,13
CNC(=O)C(=O)Nc1ccc(C)cc1C,14
CCC(CC)NC(=O)c1cccc([N+](=O)[O-])c1C,12
Cc1ccsc1/C=N/N1CCN(c2ccccn2)CC1,22
COc1ccc(-c2cc(C(=O)NC3=NCCS3)c3ccccc3n2)cc1OC,2
O=C1c2cccc([N+](=O)[O-])c2C(=O)N1CCO,14
CCc1cccc(CC)c1NC(=O)COC(=O)c1cccc(-c2ccc(OC(C)=O)cc2)c1,22
CC1SCC(=O)N(CC(=O)NCc2ccccc2)C1=O (configuration not stated),-7
Cc1nc(NC(=O)c2ccccc2)sc1C1(C)CC(c2c(Cl)cccc2Cl)=NO1 (configuration not stated),18
COc1ccccc1NC(=O)CN(c1ccc([N+](=O)[O-])cc1)S(=O)(=O)c1ccccc1,4
# (list continues)
SMILES,Biofilm kill mix
Cc1ccccc1NC(=O)NCCc1ccc(Cl)cc1,18
O=C(O)c1ccc(N2C(=O)c3cccc(Oc4ccc(Cl)cc4)c3C2=O)cc1,7
COc1ccc(OC)c(/C=N/NC(=O)c2cc3c(OC)c(OC)ccc3[nH]2)c1,7
O=c1c2ccccc2cnn1-c1ccc(Cl)nn1,10
CN(C)/C=C/C(=O)Oc1ccc(Cl)cc1Cl,15
Cc1ccc(S(=O)(=O)NC(=O)Nc2ccc(F)cc2)cc1,18
CC(=O)OCCn1c(C)[n+](CCOC(C)=O)c2cc(Cl)c(Cl)cc21,16
CCOC(=O)C1CCCN(C(=O)c2ccc([N+](=O)[O-])cc2)C1 (configuration not stated),18
O=C(CSc1nc2ccc(Cl)cc2[nH]1)c1cccs1,19
Cc1ccn2cc(CCNS(=O)(=O)c3ccc([N+](=O)[O-])cc3)nc2c1,20
CNc1ncc(Cc2ccccc2)s1,-4
CN(Cc1cnccn1)Cc1cn(Cc2ccccc2)nc1-c1ccc2c(c1)OCO2,1
OC1CCN(Cc2nc(Cc3ccccc3Cl)no2)CC1,15
CC(Cc1cccnc1)NC(=O)c1ccccc1OC1CCN(S(C)(=O)=O)CC1 (configuration not stated),2
CC1(C)CC2(C)OC(=N)C1(C#N)C2(C#N)C#N (configuration not stated),18
Cc1cccc(N2C(S)=C(C#N)C(=O)NC2c2ccco2)c1 (configuration not stated),15
COC(=O)[C@@]1(Cc2ccc(F)cc2)[C@H]2c3cc(C(=O)N4CCCC4)n(CCc4c[nH]c5ccc(OC)cc45)c3C[C@H]2CN1C(=O)c1ccccc1,0
CC(C)c1nnc(N2C(=O)C(O)=C(C(=O)c3cccs3)C2c2ccccc2)s1 (configuration not stated),13
CC1CCC(N(CCCN)Cc2ccco2)CC1C (configuration not stated),2
COc1ccc(C(=O)CNC2=NCCC2)cc1,14
CC1CN(Cc2cn(C)nc2-c2ccc(Oc3ccccc3)cc2)CCN1C (configuration not stated),10
O=C(Nc1ccccc1)c1sccc1Oc1ccc([N+](=O)[O-])cc1F,18
Cn1c(N)cc(-c2ccc(F)cc2)c(C#N)c1=O,8
OCC1(CCOc2ccccc2)CCN(Cc2ccc3c(c2)OCCO3)CC1,-1
COc1cc(Cl)c(C)cc1NC(=O)c1cc(S(=O)(=O)N(C)C)ccc1N1CCCC1,6
# (cont.)
SMILES,Biofilm kill mix
Cc1cc(C)cc(OCC(=O)N/N=C/c2ccncc2)c1,22
O=C(NCCc1c[nH]c2ccccc12)/C(=C\c1cccnc1)NC(=O)c1ccccc1Br,12
Cn1c(-c2ccccn2)[n+](C)c2ccccc21,-2
C=CCNC(=S)N/N=C/c1ccc(C(C)(C)C)cc1,9
COc1ccc(OC)c(S(=O)(=O)NCCc2csc(-c3cccnc3)n2)c1,33
O=C(Nc1nc2ccccc2[nH]1)c1ccc(Cl)c([N+](=O)[O-])c1,9
CN(C)C(=O)c1nnsc1Sc1ccc(Cl)cc1,14
COc1cc(/C=C/C(=O)OCC(=O)N2CCN(C(=O)c3ccco3)CC2)ccc1O,21
COc1ccc(N=Nc2c(C)[nH][nH]c2=O)cc1,19
O=C(Nc1ccccc1N1CCN(C(=O)c2ccccc2)CC1)c1cccc(Cl)c1,13
COc1ccccc1NC(=S)NCCN1CCOCC1,18
CCOc1ccccc1N1CCN(Cc2ccc(OC)c(OC)c2OC)CC1,5
COc1ccc(OC)c2c1nc1n2CCS1,14
Cn1c(SCc2ccccc2)nnc1-c1ccc2nonc2c1,22
COc1ccc(NC2SC(=O)N(C)C2=O)cc1 (configuration not stated),22
COC(=O)c1cc(-c2ccc(Cl)cc2Cl)n[nH]1,6
COC(=O)c1sccc1NC(=O)C1CC(C)=C(C)CC1C(=O)O (configuration not stated),14
Cc1nc(C)c(Cc2ccccc2Cl)c(=O)[nH]1,4
N/C(=N\OC(=O)c1cnn(-c2ccccc2)c1C(F)(F)F)c1ccc(C(F)(F)F)cc1,21
O=C(NCCCN1CCOCC1)c1cccc(S(=O)(=O)N2CCc3ccccc3C2)c1,13
CCCCCc1nnc(NC(=O)C2COc3ccccc3O2)s1 (configuration not stated),2
O=C(c1ccc(N2CCN(S(=O)(=O)c3ccccc3)CC2)c([N+](=O)[O-])c1)N1CCOCC1,-6
Oc1ccccc1-c1nc(NCc2cccnc2)c2ccccc2n1,17
CCOc1cc(C(=O)OCC(=O)Nc2cc(C)on2)ccc1OCC(C)C,4
Cc1cc(C)n(CC(C)Nc2nc3nonc3nc2N2CCCCC2)n1 (configuration not stated),21
# (listing goes on)
SMILES,Biofilm kill mix
CNC(=S)N(Cc1ccc2c(c1)OCO2)C1CC(=O)N(c2ccccc2)C1=O (configuration not stated),11
CC(C)CNC(=O)c1ccc(NC(=O)c2ccccc2[N+](=O)[O-])cc1,8
Cc1ccc2c(c1)C(c1ccncc1)=NNC(c1ccc(F)cc1)=N2,13
CCOCCCNC(=O)C(c1ccc(OC)cc1)N(Cc1ccc2c(c1)OCO2)C(=O)c1ccccn1 (configuration not stated),3
COc1ccc(N2CCN(CC(O)COc3ccc([N+](=O)[O-])cc3)CC2)cc1 (configuration not stated),11
CN(C)C(CNC(=S)Nc1ccccc1Cl)c1cccnc1 (configuration not stated),-5
CC1CN(C(=O)COC(=O)c2nn(-c3ccccc3)c(=O)c3ccccc23)CC(C)O1 (configuration not stated),14
CCn1c(=O)cc(SCC(=O)Nc2cccc(C)n2)c2ccccc21,16
COc1cccc(Cn2cnc3c(N)c(C)c(C)cc32)c1,29
CCCCOCCCNC(=S)Nc1ccc(S(=O)(=O)N2CCOCC2)cc1,21
CCOc1ccc(NC(c2ccccn2)c2oc(CO)cc(=O)c2O)cc1 (configuration not stated),10
Cc1nn2c(CN(C(=O)CN3CCOCC3)c3ccccc3)nnc2c2ccccc12,17
Cc1ccc(S(=O)(=O)c2c(C)cc(C)nc2N2CCCCC2)cc1,13
CSc1nc(-c2ccccc2)c(C#N)c(=O)[nH]1,20
Cc1ccc(/C=N/N2CCOCC2)s1,11
COc1cccc2cc(C(=O)NCCC3=CCCCC3)c(=O)oc12,3
CCOc1cc(C(=O)OCC(=O)Nc2ncc(Cl)c(C)c2Cl)ccc1OCC(=O)N1CCOCC1,6
COc1ccc(/C=C/C(=O)NCCCn2ccnc2)cc1,14
CCS(=O)(=O)c1ccc(O)c(NC(=O)COc2ccc(Cl)cc2)c1,17
CCn1c(SCC(=O)NCc2ccco2)nc2ccccc2c1=O,19
O=C(CC1SC(=O)NC1=O)Oc1ccc(/C=N/NC(=O)c2ccccc2O)cc1 (configuration not stated),7
CC(C)(C)[C@H]1C=C(C(=O)N2CCOCC2)O[C@@H](OCCCCO)C1,22
Cc1cc(C)n(-c2ccc(S(=O)(=O)N3CCOCC3)cc2[N+](=O)[O-])n1,24
CCCOc1ccc(C(=O)c2ccccc2C(=O)O)cc1OCCC,17
Cc1ccc(Sc2nc(C)c([N+](=O)[O-])c(C)c2C#N)cc1,23
O=C(NC1CCCCC1)Oc1cc2oc(=O)sc2cc1Br,21
C=C1SC(=Nc2ccccc2Cl)N(C(=O)c2sc3ccccc3c2Cl)C12CCCCC2,21
O=C(CSc1ncnc2ccccc12)NCC(=O)c1ccccc1,-5
Cc1ccc2occ(/C=N/NC(=O)[C@@H](N)Cc3ccccc3)c(=O)c2c1,24
CCOC(=O)c1ccc(NC(=O)c2cn(CCC#N)nc2-c2ccc3c(c2)OCCO3)cc1,24

# Compounds shown so far with an NH in an aromatic ring (14):
SMILES,Biofilm kill mix
Cc1ccc(S(=O)(=O)N2CCOCC2)cc1NC(=O)COC(=O)c1cc(=O)[nH]c2ccccc12,23
CC(=O)c1ccc(N2CCN(CC(=O)N(CC(C)C)c3c(N)n(CC(C)C)c(=O)[nH]c3=O)CC2)cc1,-3
Cc1[nH]c2ccccc2c1/C=N/NC(=S)NC(C)C,7
Cc1cccc(C2c3[nH]c4ccccc4c3CCN2C(=O)Cc2n[nH]c(C)n2)n1 (configuration not stated),7
O=C(CSc1nc2ccc(Cl)cc2[nH]1)Nc1ccc2c(c1)CCC2,11
COc1ccc(OC)c(/C=N/NC(=O)c2cc3c(OC)c(OC)ccc3[nH]2)c1,7
O=C(CSc1nc2ccc(Cl)cc2[nH]1)c1cccs1,19
COC(=O)[C@@]1(Cc2ccc(F)cc2)[C@H]2c3cc(C(=O)N4CCCC4)n(CCc4c[nH]c5ccc(OC)cc45)c3C[C@H]2CN1C(=O)c1ccccc1,0
O=C(NCCc1c[nH]c2ccccc12)/C(=C\c1cccnc1)NC(=O)c1ccccc1Br,12
O=C(Nc1nc2ccccc2[nH]1)c1ccc(Cl)c([N+](=O)[O-])c1,9
COc1ccc(N=Nc2c(C)[nH][nH]c2=O)cc1,19
COC(=O)c1cc(-c2ccc(Cl)cc2Cl)n[nH]1,6
Cc1nc(C)c(Cc2ccccc2Cl)c(=O)[nH]1,4
CSc1nc(-c2ccccc2)c(C#N)c(=O)[nH]1,20
